FGF22 binding: binders of human FGF22 protein, primary screen, FGF22 synaptogenesis inhibitor project, biophysical, thermal shift, single point. Fibroblast growth factor 22 (Homo sapiens), Q9HCT0. recombinant FGF22 thermal shift, SYPRO orange fluorescence; percent of sucrose octasulfate shift, DMSO zero. calls only at 9.99 µM. hit rate 1.5% among 340,000;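 active means melting point raised past a set limit in the mean and every replicate; inconclusive means no clear call; three in four hits are not shown here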
ALR H2O2 inh: inhibitors of human ALR sulfhydryl oxidase, primary screen, biochemical, H2O2 detection, HRP-luminol luminescence, single point | FAD-linked sulfhydryl oxidase ALR (Homo sapiens), P55789 | purified ALR, DTT oxidation | inhibition, % (no concentration beside the values) | hit rate 3.8% among 290,000 | AID 485317, 2010;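 active means mean and each replicate at 75% or more; inconclusive means only one of the two met; inactive means neither met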;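 further: stock transfer was 7.5 nL into about 7.5 µL; 0% = neutral wells and 100% = wells with inactivated enzyme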
UCH37 DUB inh: inhibitors of human UCH37 deubiquitinase, primary screen, biochemical, Ub-AMC cleavage, fluorescence; purified proteasome/UCH37; inhibition, % (test concentration not listed); hit rate 0.33% among 330,000;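 active means mean of two replicates above 20%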;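 further: 0% = compound-free wells with enzyme and 100% = wells lacking proteasome; stock transfer was 100 nL into about 20 µL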
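Reagent: Ub-AMC substrate; assay system: Proteasome-associated human UCH37 deubiquitinase; controls: no-proteasome and no-compound wells; read-out: % inhibition of Ub-AMC cleavage fluorescence; timing: 30 min preincubation with enzyme, 25 min cleavage at room temperature; signal: AMC fluorescence from Ub-AMC cleavage, excitation 355 nm, emission 460 nm; buffer or medium: Tris-HCl pH 7.4 plus ovalbumin, ATP-MgCl2, DTT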
HNF4A DNA FP: change in binding of human HNF4A to DNA, primary screen, biochemical, fluorescence polarization, FITC-DNA | 1 h | Hepatocyte nuclear factor 4-alpha (Homo sapiens), P41235 | hit rate 0.3% among 360,000 | activity change, % at 10 µM; in the data active means activity change above about 30%, passing the limit was not always enough;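 further: controls were the assay level and a saturating level of protein; the project sought stronger binding though the title names inhibitors; some compounds called inactive have numbers as strong as hits; positive values seem to mean higher polarization but the record does not say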
LANA-H2B inh: blockers of LANA interaction with H2A/H2B – biochemical, FP readout, HTS, primary screen. Protein LANA1 (Human herpesvirus 8 type P (isolate GK18)), Q9QR71. cell-free LANA-H2A/H2B peptide, fluorescence polarization. inhibition, % (no concentration beside the values). hit rate 0.6% among 320,000; in the data active means inhibition mostly above about 10%, no sharp cut-off; inactive means mostly below about 6.7%;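 further: stock transfer was 7.5 nL into about 10 µL; 0% = median of vehicle wells and 100% = median of positive control wells; one replicate is shown; the record names a cut of 25% in any replicate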
Target sequence (Q9QR71 whole entry, looked up): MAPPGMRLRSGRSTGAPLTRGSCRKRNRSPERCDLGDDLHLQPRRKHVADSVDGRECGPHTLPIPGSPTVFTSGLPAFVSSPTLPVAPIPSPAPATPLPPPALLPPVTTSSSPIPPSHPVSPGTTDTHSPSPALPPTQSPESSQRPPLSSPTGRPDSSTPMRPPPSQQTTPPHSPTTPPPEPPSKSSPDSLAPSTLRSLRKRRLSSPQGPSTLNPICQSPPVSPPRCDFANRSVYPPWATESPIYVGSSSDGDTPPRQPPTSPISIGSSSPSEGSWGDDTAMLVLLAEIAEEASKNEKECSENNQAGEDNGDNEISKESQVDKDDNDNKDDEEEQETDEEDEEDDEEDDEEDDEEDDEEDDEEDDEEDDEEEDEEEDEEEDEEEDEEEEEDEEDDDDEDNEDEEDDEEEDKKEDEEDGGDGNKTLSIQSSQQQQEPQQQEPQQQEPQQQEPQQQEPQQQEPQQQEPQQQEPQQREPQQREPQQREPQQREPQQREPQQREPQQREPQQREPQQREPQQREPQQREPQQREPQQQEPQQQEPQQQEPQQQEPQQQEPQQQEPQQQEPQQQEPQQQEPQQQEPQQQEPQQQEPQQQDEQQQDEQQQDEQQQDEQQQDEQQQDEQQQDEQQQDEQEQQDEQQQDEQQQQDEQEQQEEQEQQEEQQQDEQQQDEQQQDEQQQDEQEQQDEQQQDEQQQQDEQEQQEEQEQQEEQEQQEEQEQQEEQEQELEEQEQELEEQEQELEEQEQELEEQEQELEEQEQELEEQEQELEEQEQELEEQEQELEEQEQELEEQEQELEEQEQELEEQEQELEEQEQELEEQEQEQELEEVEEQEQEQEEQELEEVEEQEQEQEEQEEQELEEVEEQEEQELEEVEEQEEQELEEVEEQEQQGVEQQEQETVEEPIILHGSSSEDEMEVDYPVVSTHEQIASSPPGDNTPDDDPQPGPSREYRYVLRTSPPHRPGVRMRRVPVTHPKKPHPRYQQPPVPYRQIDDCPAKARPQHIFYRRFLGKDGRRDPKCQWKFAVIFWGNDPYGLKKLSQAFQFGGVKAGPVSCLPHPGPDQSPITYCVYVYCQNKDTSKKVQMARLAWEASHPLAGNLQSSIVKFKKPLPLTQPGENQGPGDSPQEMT
B2AR ag: beta2AR agonists driving receptor internalization, primary screen, cell-based, FAP fluorogen, flow cytometry; Beta-2 adrenergic receptor (Homo sapiens), P07550; Am2.2-beta2AR cells; reference of the scale not given here; response, % (concentration not given with the values); hit rate 0.43% among 340,000; AID 504454, 2011;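 active means response above a set limit, near 3 SD of response in nonfluorescent compounds, cut at about 42% in these data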;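 further: stock transfer was 100 nL into about 11 µL; a reference agonist was the positive control; negative values mostly stem from fluorescent compounds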
E coli growth: E. coli growth inhibition, primary screen, OD600; Escherichia coli growth, 23 h; stronger effect = lower value; hit rate 0.21% among 330,000; OD600 absorbance (no concentration beside the values);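 active means OD600 absorbance below the run mean of sample wells minus 3.6 SD, in any replicate, cut at about 0.56 in these data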;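 further: stock transfer was 300 nL into about 60 µL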
Starred values were filed as active, the others as inactive; i = inactive; ? = inconclusive; . = not tested or not shown; + = active, no number. This is a subset; the hit share may differ from the screen's.

#	mol	FGF22 binding	HNF4A DNA FP	UCH37 DUB inh	E coli growth	B2AR ag	LANA-H2B inh	ALR H2O2 inh
1	CCN1C(=O)[C@@H]2[C@@H](c3ccc(-c4ccc(OC)cc4)cc3)N3CCCC[C@@]3(C(=O)OC)[C@@H]2C1=O	i	3.3	-0.7	.	0	-3.8	2
2	CCOC(=O)Cn1c(CN2CCN(C(c3ccccc3)c3ccccc3)CC2)nc2c1c(=O)n(C)c(=O)n2C	i	-7.3	-0.1	0.73	13	0.5	-38
3	CN(C)CCCNc1ncnc2scc(-c3ccccc3)c12	i	-0.7	2.0	0.7	2	3.7	1
4	Cc1cccc(SCc2noc(C(=O)NC(C)C)c2C(=O)O)c1	i	-1.2	0.1	.	8	5.8	3
5	Clc1ccc(Cn2c(-c3cccnc3Cl)nc3ccccc32)c(Cl)c1	.	0.6	3.0	0.74	2	-5.8	-2
6	Cc1ccc(C(=O)N2CC(=O)NC(=O)C2)cc1	i	-3.1	.	.	-8	-7.2	-4
7	N#CCCN(Cc1cccnc1)C(=S)NC1CC2C=CC1C2 (centres undefined)	i	-0.1	1.1	0.64	0	-1.4	-3
8	COc1ccc(NC(=O)CS(=O)CC(=O)Nc2ccc(OC)c(OC)c2)cc1 (centres undefined)	.	-5.7	0.6	0.67	10	3.7	87*
9	Cc1ccc(OCCN2C(=O)OC(C)(C)C2(C)O)cc1 (centres undefined)	.	-1.4	0.4	0.68	-3	0.9	-8
10	CN(CCN1CCOCC1)C(=O)CC1C(=O)NCCN1Cc1ccccc1C(F)(F)F (centres undefined)	i	-2.9	0.0	0.69	-2	7.9	-15
11	Nc1cc2sc(-c3ccc(C(=O)O)cc3)nc2cc1Cl	i	0.4	.	.	1	3.4	-21
12	Cc1ccc(Cn2c(SCC(=O)N(C)C3CCS(=O)(=O)C3)nc3ccccc3c2=O)cc1 (centres undefined)	i	-0.6	1.5	0.67	4	2.0	-49
13	COc1cccc(NC(=O)CN(C2=NC3CS(=O)(=O)CC3S2)c2cccc(C)c2)c1 (centres undefined)	i	6.6	4.6	0.77	1	2.9	98*
14	Cc1ccc(NC(=O)CSc2nc3c(c(=O)[nH]2)CCC3)cc1C	i	3.0	0.8	0.68	-2	-3.6	18
15	OC(COc1ccc(CNCCc2ccc(C(F)(F)F)cc2)cc1)CN1CCCCC1 (centres undefined)	i	1.1	8.2	0.69	9	-1.8	.
16	CCOC(=O)c1c(NC(=O)Cc2ccccc2)sc2c1CC(C)(C)NC2(C)C	i	0.2	5.2	0.71	5	0.4	.
17	O=C(/C=C/c1ccc(Cl)cc1)NCc1ccncc1	.	0.7	1.7	0.66	-6	-5.3	-1
18	Cc1cc(C)n(-c2ccc(C(=O)Nc3ccc(S(=O)(=O)N(C)C)cc3)cc2)n1	+	-1.1	-1.2	0.61	-5	-3.7	-4
19	Cc1oc(-c2cccc(Cl)c2)nc1CN1CCC(C(=O)NCc2cccnc2)CC1	.	-1.0	1.1	0.68	-10	0.0	-4
20	CCCNc1c(NS(=O)(=O)c2ccc(C)cc2C)c(=O)oc2ccccc12	i	-2.2	3.5	0.71	9	5.6	60
21	C/C(=N\Nc1nc(Cl)c(Cl)cc1Cl)c1ccc(S(=O)(=O)NCc2ccco2)cc1	i	-3.5	.	.	7	-4.1	1
22	COc1ccccc1N1C(=O)CC(Sc2ccccc2N)C1=O (centres undefined)	i	-0.1	.	.	-2	2.5	-6
23	COc1ccc(OC)c(NC(=O)C(=O)N/N=C/c2ccccc2[N+](=O)[O-])c1	.	4.6	.	.	2	3.4	-19
24	CC(C)CCn1nnnc1C(c1ccccc1)N1CCC(C(N)=O)CC1 (centres undefined)	.	0.8	3.9	0.73	-1	-1.6	-2
25	Cc1ccc(CSC2=NCCN2C(=O)C(C)Oc2ccccc2)cc1 (centres undefined)	i	0.7	3.1	0.71	2	1.4	-1
26	COc1ccc(/C(C)=N/NC(=S)NCCc2ccccc2)c(O)c1	i	11	.	.	2	-1.6	.
27	CC(C)C(CCNC(=O)CC(Cc1ccccc1)c1ccco1)c1ccco1 (centres undefined)	.	-0.2	-3.5	0.65	10	-1.7	.
28	COC(=O)COc1ccc(S(=O)(=O)N2CCN(c3ccccc3)CC2)cc1	i	-1.6	4.7	0.71	7	0.2	10
29	COc1cc(/C=N/NC(=O)C2C3CCCCC32C)cc(Br)c1O (centres undefined)	.	-0.8	.	.	8	1.0	86*
30	Cc1oc2c(c1C(=O)NCc1ccccc1)CCCC2	.	-2.2	-3.2	0.65	-9	5.3	-5

Compounds listed so far with two or more sulfur atoms, in the order listed:
#	mol	FGF22 binding	HNF4A DNA FP	UCH37 DUB inh	E coli growth	B2AR ag	LANA-H2B inh	ALR H2O2 inh
12	Cc1ccc(Cn2c(SCC(=O)N(C)C3CCS(=O)(=O)C3)nc3ccccc3c2=O)cc1 (centres undefined)	i	-0.6	1.5	0.67	4	2.0	-49
13	COc1cccc(NC(=O)CN(C2=NC3CS(=O)(=O)CC3S2)c2cccc(C)c2)c1 (centres undefined)	i	6.6	4.6	0.77	1	2.9	98*

Further results follow:
#	mol	FGF22 binding	HNF4A DNA FP	UCH37 DUB inh	E coli growth	B2AR ag	LANA-H2B inh	ALR H2O2 inh
31	CCSc1nnc2c(n1)OC1(CCCC1)Nc1ccccc1-2	i	-2.0	9.1	0.72	2	-0.7	-1
32	COc1ccc(CNCC(O)(c2ccccc2)c2ccc(F)cc2)cc1 (centres undefined)	i	-2.8	-1.3	0.63	3	-1.0	-9
33	O=S(=O)(c1ccccc1)N1N=C(c2cccs2)CC1c1cccc(O)c1 (centres undefined)	i	-0.8	2.8	0.72	16	1.2	6
34	CC(C)Cn1c(N)c(C(=O)CSc2nccn2C)c(=O)n(C)c1=O	i	5.6	3.1	0.67	-7	-2.6	3
35	Cc1cc(C(=O)CSc2nnc(N)s2)c(C)n1Cc1cccs1	.	1.6	1.3	0.69	6	1.3	11
36	CCc1cc2c(C)ccc(C)c2nc1SCC(=O)Nc1c[nH]c(=O)[nH]c1=O	.	-0.9	-0.4	0.72	10	-1.2	.
37	O=C(O)c1cccc(N(CCO)CCO)c1	i	-4.5	-96	0.68	7	-1.2	-1
38	O=C(Nc1ccc2c(c1)Cc1ccccc1-2)c1ccco1	.	2.6	-5.1	0.68	16	-0.4	-16
39	COc1ccc(CC(=O)NC(C)c2nnc(SCC(=O)Nc3cc(C)ccc3OC)n2C)cc1 (centres undefined)	+	2.3	2.0	0.7	3	-0.4	-19
40	COn1c(-c2ccccc2)nc2c1CCc1c-2no[n+]1[O-]	.	2.9	4.6	0.75	-17	-2.8	-4
41	O=C(NCCC(=O)N1CCN(c2ncccn2)CC1)c1ccccc1	.	1.2	-0.4	0.69	0	-2.6	4
42	O=C(Nc1ccc(-n2cnnn2)cc1)c1cc(S(=O)(=O)N2CCCC2)ccc1Cl	i	4.9	1.3	0.7	-1	.	.
43	CCOc1ccccc1NC(=O)C1CC2CCCC(C1)C2=O (centres undefined)	.	-5.0	3.5	0.69	-7	5.9	-5
44	CCOC(=O)C1=C(N)OC2=C(C(=O)CC(C)(C)C2)C1c1cccs1 (centres undefined)	.	-2.8	-3.2	0.71	-5	-0.8	19
45	COC(=O)c1c(NC(=O)C2CCC2)sc(C(=O)N(C)C)c1C	.	-1.8	0.4	0.68	-4	1.2	-1
46	O=C(O)CSc1nc2ccccc2s1	i	2.1	-0.7	0.67	3	1.8	-2
47	O=C(NCC(c1ccco1)N1CCCCC1)c1cccc(NS(=O)(=O)c2ccc(Br)cc2)c1 (centres undefined)	i	1.1	-1.6	0.68	7	3.1	3
48	O=C(OC(C(=O)NC1CCCC1)c1ccc(F)cc1)c1ccno1 (centres undefined)	.	-0.1	0.7	0.68	-4	-1.5	2
49	CCN(CC)S(=O)(=O)c1ccc(Cl)c(C(=O)Nc2ccc(Cl)cc2[N+](=O)[O-])c1	i	-1.6	1.0	0.67	-14	-1.1	-19
50	Cc1cc(-n2nc(C)cc2C)n2nc(C)c(-c3ccccc3)c2n1	.	-5.1	1.7	0.69	0	7.3	-4
51	O=C(C1CC1)N1CCN=C1SCc1cccc(C(F)(F)F)c1	.	7.1	1.5	0.73	-8	-4.4	?
52	O=C(CN(Cc1ccco1)S(=O)(=O)c1cccs1)Nc1ccccc1C(F)(F)F	.	2.5	4.5	0.67	13	-1.2	-8
53	COc1ccc(-n2c(SC3CCOC3=O)nc3ccccc3c2=O)cc1Cl (centres undefined)	i	-2.0	0.2	0.68	-10	-8.5	.
54	CCC(C)NC(C(=O)Nc1ccc(Cl)c([N+](=O)[O-])c1)c1ccccc1 (centres undefined)	.	-3.0	2.4	0.68	12	0.2	2
55	CN(Cc1ccccc1)C(=O)c1nc[nH]c1C(=O)N1CCN(c2ccccc2)CC1	i	-3.6	3.1	0.7	-13	-0.3	71
56	CN1C=CC=C/C1=C1\SC(=S)N(N)C1=O	i	-2.1	11	0.71	0	1.3	73
57	Cc1ccc(S(=O)(=O)N2[C@@H](c3ccc(Cl)cc3)C(C(=O)O)=CC[C@H]2c2cccs2)cc1	i	2.2	3.9	.	11	-7.7	8
58	COc1ccc(C(=O)OCC(=O)c2ccc3c(c2)NC(=O)CO3)cc1S(=O)(=O)N1CCOCC1	i	-2.2	2.9	0.66	-2	2.8	-25
59	CC(OC(=O)COc1ccccc1)C(=O)NC1CCCC1 (centres undefined)	i	-0.8	5.3	0.69	2	-0.4	-1
60	CCOc1ccc(Nc2nc(CC(=O)OC)cc(=O)[nH]2)cc1	.	0.8	3.5	0.69	7	-0.4	-7
61	CC(=O)Nc1ccc(S(=O)(=O)NCC(=O)OCC(=O)c2cc(C)n(-c3ccc4c(c3)OCO4)c2C)cc1	.	4.9	4.6	0.72	4	4.7	.
62	COc1ccc2nc(SCC(=O)Nc3ccc4c(c3)CCC4)[nH]c2c1	.	0.1	1.4	0.67	-16	-5.7	-21
63	C=CCNc1nc2c3ccccc3n(C(C)=O)c2s1	.	-6.1	1.8	0.7	-22	2.3	96*
64	c1ccc(-c2ccc(OCCOCCn3cncn3)cc2)cc1	.	-0.9	0.9	0.74	-1	3.1	-3
65	O=C(NCc1ccccc1Cl)c1ccc(S(=O)(=O)Nc2cccc(C(F)(F)F)c2)cc1	.	0.1	4.7	0.65	3	1.7	-4
